From PubChem BioAssay
PKD1 kinase inh: blocks activity of human protein kinase D1; PKD1 kinase fluorescence polarization assay; inhibition, %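 (about 10 µM by stock and volumes)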; hit rate 0.056% among 200,000; AID 797;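 active = inhibition of 50% or more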;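 also: controls were vehicle for no effect and a reference inhibitor for full effect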
RGS16-Gao: modulates binding between human RGS16 and Galphao. bead-based flow cytometry RGS16-Galphao binding, fluorescence; actives lie on both sides. binding response (% of control), % at 10 µM. hit rate 0.38% among 220,000;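 active = below 25% or above 175%, edge rows of some plates excepted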;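 also: Galphao activated by GDP with aluminum fluoride before binding; 100% = wells without compound and 0% = beads without RGS; some results beyond the cut were filed as inactive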
Target sequence (O15492 whole entry, looked up): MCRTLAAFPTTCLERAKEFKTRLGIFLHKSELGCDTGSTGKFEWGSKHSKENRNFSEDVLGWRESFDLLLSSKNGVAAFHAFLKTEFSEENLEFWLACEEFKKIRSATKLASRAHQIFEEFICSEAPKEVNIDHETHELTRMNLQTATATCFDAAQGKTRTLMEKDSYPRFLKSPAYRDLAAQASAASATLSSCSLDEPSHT
Target sequence (P09471 whole entry, looked up): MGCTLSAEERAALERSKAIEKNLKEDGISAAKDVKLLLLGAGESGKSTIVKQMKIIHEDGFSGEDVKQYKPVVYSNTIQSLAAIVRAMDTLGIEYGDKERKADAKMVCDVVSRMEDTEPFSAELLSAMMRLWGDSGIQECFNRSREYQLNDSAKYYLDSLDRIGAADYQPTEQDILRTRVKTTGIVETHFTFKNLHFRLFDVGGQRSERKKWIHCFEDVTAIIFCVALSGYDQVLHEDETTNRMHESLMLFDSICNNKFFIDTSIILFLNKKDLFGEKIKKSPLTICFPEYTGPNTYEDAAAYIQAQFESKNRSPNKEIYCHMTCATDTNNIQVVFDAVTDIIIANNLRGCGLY
GALR2 agonist: agonists of human galanin receptor 2 (GALR2); hit rate 0.48% among 140,000; AID 803; O43603; GALR2-expressing cells, agonist activation read-out; activation, %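 (tested at 5 µM)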;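 active = above mean plus 3 SD of all compounds, about 5% in these data, not always enough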;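 also: 0% = vehicle buffer wells and 100% = reference agonist at full effect; tested in CHO reporter cells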
Target sequence (O43603 whole entry, looked up): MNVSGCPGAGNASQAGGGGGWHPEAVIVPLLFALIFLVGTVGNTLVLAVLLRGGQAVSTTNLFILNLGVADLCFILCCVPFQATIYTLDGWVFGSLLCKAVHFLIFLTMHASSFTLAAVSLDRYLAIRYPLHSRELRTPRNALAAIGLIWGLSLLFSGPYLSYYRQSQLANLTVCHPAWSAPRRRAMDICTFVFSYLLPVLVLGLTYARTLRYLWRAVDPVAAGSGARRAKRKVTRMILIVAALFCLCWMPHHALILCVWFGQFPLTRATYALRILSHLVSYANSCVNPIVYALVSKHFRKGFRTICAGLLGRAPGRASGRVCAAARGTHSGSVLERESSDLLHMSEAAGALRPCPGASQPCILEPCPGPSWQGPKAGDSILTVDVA
HSV replic up: increases HSV replication in cells; hit rate 0.005% among 220,000; maximum fold increase; AID 1956; HSV replication augmentation in cells, fold increase;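 active = peak rise of 1.5-fold or more in the series; tested in PC3 cells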;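 also: first round at 10 µM; read as green reporter fluorescence; hits show the peak of a series up to 25 µM; 1 = signal of infected wells without compound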
Insulin prom inh: TRM-6 insulin promoter activity inhibition; TRM-6 cells (human fetal islet line), insulin promoter-eGFP reporter, imaging; reporter expression induced with tamoxifen; inhibition, % at 2 µM; hit rate 0.9% among 130,000;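 active = inhibition above the mean plus 3 SD, with well images judged a real hit on visual review, cut at about 60% in these data, passing the limit was not always enough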
Insulin prom inh cell count: recorded beside Insulin prom inh, whose call it bears; normalized cell count, %; measured here: cell count, toxicity; reference of the scale not given here;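 cells exposed to compound for 48 h; stained nuclei by imaging scaled within each plate; lower means fewer cells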
HSV replic up primary fold: further read-out of HSV replic up, marked with its call; fold increase; compound at 10 µM; measured here: primary screen fold increase 10 uM; tested in PC3 cells;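 GFP signal in the first replicate; 1 = infected wells without compound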
* hit, by the source's call; i = inactive; . = no result given.

SMILES	PKD1 kinase inh	RGS16-Gao	GALR2 agonist	HSV replic up	HSV replic up primary fold	Insulin prom inh	Insulin prom inh cell count
CCCCOC(=O)c1[nH]c(C)c(C(=O)OC)c1C	-1	109	-0.5	i	1.1	17	102
CCOC(=O)CSc1nc2c(sc3ccccc32)c(=O)n1CCCN1CCOCC1	-9	103	0.7	i	0.96	3	93
Cc1nc(N2CCN(C(=O)COc3ccccc3)CC2)c2c(C)c(C)sc2n1	-3	98	-0.3	i	0.9	-14	42
O=C1c2ccccc2CCC12N=NCC2c1ccc(Cl)cc1 (stereo unspecified)	1	85	-0.4	i	1.1	-31	165
Cc1nnc(SCC(=O)Nc2ncc3c(n2)CCCC3=O)s1	-15	102	0.8	i	0.84	33	79
C=C(C)Cn1c(SCC(=O)N/N=C/c2cccc(O)c2)nc2ccccc2c1=O	-7	103	0.2	i	0.95	.	.
Nc1ccc(C(=O)Oc2ccc([N+](=O)[O-])cc2)cc1	.	100	.	i	1.2	.	.
CC(=O)c1cccc(NC(=O)c2csc3c2CCCCC3)c1	-6	102	.	i	0.9	26	121
COc1ccccc1/C=C/C(=O)NCC(=O)n1nc(C)cc1C	.	98	.	i	0.89	.	.
S=C(NCCc1ccccc1)NCc1cccs1	-8	52	-0.3	i	1	8	84
O=C(Nc1nc(-c2ccc(Cl)cc2)cs1)NC1CCCCC1	1	106	-0.2	i	0.94	45	140
CC(C)=CC(=O)Nc1ccccc1Br	3	100	-0.3	i	1.1	-25	104
Cn1c(CCN2CCCCC2)nc2cc(NS(=O)(=O)c3ccc(F)cc3)ccc21	1	95	-0.5	i	0.58	.	.
COc1ccc2c(c1)c1c(n2C(C)=O)C(OC(C)=O)=NCC1	-5	102	-0.7	i	0.59	-7	119
COc1cc(NC(C)C(=O)N2CC(C)OC(C)C2)cc(OC)c1 (stereo unspecified)	-9	53	-3.6	i	0.95	13	26

Pulled by structure from the list above, 6 records:
SMILES	PKD1 kinase inh	RGS16-Gao	GALR2 agonist	HSV replic up	HSV replic up primary fold	Insulin prom inh	Insulin prom inh cell count
Nc1ccc(C(=O)Oc2ccc([N+](=O)[O-])cc2)cc1	.	100	.	i	1.2	.	.
O=C1c2ccccc2CCC12N=NCC2c1ccc(Cl)cc1 (stereo unspecified)	1	85	-0.4	i	1.1	-31	165
Cc1nc(N2CCN(C(=O)COc3ccccc3)CC2)c2c(C)c(C)sc2n1	-3	98	-0.3	i	0.9	-14	42
Cc1nnc(SCC(=O)Nc2ncc3c(n2)CCCC3=O)s1	-15	102	0.8	i	0.84	33	79
CCOC(=O)CSc1nc2c(sc3ccccc32)c(=O)n1CCCN1CCOCC1	-9	103	0.7	i	0.96	3	93
Cn1c(CCN2CCCCC2)nc2cc(NS(=O)(=O)c3ccc(F)cc3)ccc21	1	95	-0.5	i	0.58	.	.

The list goes on.
SMILES	PKD1 kinase inh	RGS16-Gao	GALR2 agonist	HSV replic up	HSV replic up primary fold	Insulin prom inh	Insulin prom inh cell count
CC12CCC(C(=O)N(NC(=O)c3cc(Cl)ccc3O)C1=O)C2(C)C (stereo unspecified)	5	104	0.0	i	0.96	-77	98
Cc1cc(OC(=O)C(c2ccccc2)c2ccccc2)c([N+](=O)[O-])c(=O)[nH]1	-6	102	0.5	i	0.91	-7	176
CCC(=O)/C=C1\Sc2ccccc2N1CC	-3	87	-2.7	i	0.91	50	107
O=C(NCc1nc2ccccc2[nH]1)c1ccc([N+](=O)[O-])cc1	0	101	.	i	0.99	-15	119
Cc1ccc(NC(=O)CCn2cnc3cc(C)c(C)cc32)cc1	11	110	-1.6	i	0.97	-37	79
O=S(=O)(c1ccc(Cl)c(NC(=S)N/N=C/c2ccc(O)cc2)c1)N1CCOCC1	-9	108	-0.6	i	0.92	-26	109
Cc1cc(NC(=O)CSc2nnc3c(C)cc4cc(C)c(C)cc4n23)no1	-11	144	0.5	i	0.82	45	90
O=C(O)c1c[nH]ccc1=O	-7	103	12*	i	0.72	.	.
COc1cccc(N2CCN(CC(=O)Nc3ccc(SC(F)F)cc3)CC2)c1	-2	118	0.1	i	0.99	.	.
Clc1cccc(N/N=C/c2ccc(N3CCOCC3)s2)c1	0	100	-0.9	i	1.3	30	120
Cn1nnnc1SCC(=O)Nc1ccc(Cl)cc1Cl	-5	.	-0.8	.	.	.	.
COC(=O)c1cc(C(=O)NCc2ccccc2)c(=O)[nH]c1C	9	102	.	i	0.75	36	138
Cc1cccc(C)c1NC(=O)CNC(=O)CCC(=O)c1cccs1	-6	116	-0.6	i	0.99	-26	109
COCCn1c(=S)[nH]c2cc(OC)c(OC)cc2c1=O	1	98	-1.1	i	0.95	-5	48
CC(NC(=O)c1ccc2c(c1)OCCO2)C(=O)O (stereo unspecified)	-1	99	0.7	i	0.79	-90	65
CCOC(=O)CC(=O)CSc1nccc(-c2cccnc2)n1	.	101	.	i	1.1	.	.
CS(=O)(=O)N(CC(=O)Nc1cccc([N+](=O)[O-])c1)c1cccc(F)c1	4	97	.	i	1.1	.	.
CCOC(=O)C1=C(C)NC(=O)NC1c1ccc(OCC(=O)Nc2ccccc2)c(OC)c1 (stereo unspecified)	-12	108	-2.0	i	1	.	.
O=C(NCCN1CCOCC1)c1cc2cc(Cl)cc(Cl)c2oc1=O	4	.	-0.6	.	.	14	88
COc1ccccc1C(=O)NC(C)c1ccccc1 (stereo unspecified)	-18	106	1.1	i	1	32	115
CCOC(CCn1c(SCc2ccc([N+](=O)[O-])cc2)nc2ccccc2c1=O)OCC	-5	99	-0.8	i	1	-37	90
COc1ccc(S(=O)(=O)NNC(=O)c2cc3c4ccccc4n(C)c3s2)cc1	4	102	-0.2	i	0.84	.	.
COc1ccc(NC(=O)C23CC4CC(C2)CC(n2cnc(Br)n2)(C4)C3)c(C)c1	-4	102	-0.4	i	1	11	44
Cc1ccc(NS(=O)(=O)c2cc(NC(=O)c3cc4c(s3)CCCC4)ccc2C)c(C)c1	-5	92	-2.1	i	0.92	-19	116
Cc1cccc(OCC(=O)N2CCC(c3ccccc3)C2)c1 (stereo unspecified)	-4	102	-4.0	i	0.87	15	103
COCCNC(=S)NNC(=O)c1ccco1	0	97	-1.2	i	0.98	-17	111
CC(=O)Nc1ccc2c(c1)OCCOCCOc1cc(NC(C)=O)ccc1OCCOCCOCCO2	1	112	-3.3	.	.	.	.
O=C(CSc1nc(C2CC2)nc2c1cnn2-c1ccccc1)Nc1c[nH]c(=O)[nH]c1=O	-4	95	.	i	1	.	.
CC(=O)NCCn1c(SCC(=O)NCC2CCCO2)nc2ccccc2c1=O (stereo unspecified)	4	106	-2.5	i	0.79	50	122
CN(C)CCCNC(=O)c1cc(S(=O)(=O)N2CCOCC2)ccc1F	5	172	-2.7	i	1	30	108
O=C(CCl)N1c2ccccc2OCC1c1ccccc1 (stereo unspecified)	3	100	-0.9	i	0.95	.	.
CCOC(=O)CC1COCCN1Cc1cn[nH]c1-c1cc(OC)c(OC)c(OC)c1 (stereo unspecified)	.	104	.	i	0.89	.	.
COc1ccc(S(=O)(=O)N2CCc3ccccc32)cc1C(=O)OCC(=O)c1c(N)n(C)c(=O)n(C)c1=O	-1	93	.	i	0.98	.	.
N#C/C(=C\c1ccc(N2CCOCC2)o1)C(=O)N1CCOCC1	-6	105	0.3	i	1.1	-7	99
COc1ccc(S(=O)(=O)N2CCC(C(=O)NCC3CCCO3)CC2)cc1 (stereo unspecified)	2	106	-1.3	i	0.82	17	93
Cc1ccc(C(CC(=O)O)Nc2nc(N3CCOCC3)nc(N3CCOCC3)n2)cc1 (stereo unspecified)	0	85	-1.8	i	0.91	0	110
COC(=O)CCCCCC(CCC(=O)OC)NC(C)=O (stereo unspecified)	-2	81	-1.9	i	0.82	.	.
Cc1ccc([N+](=O)[O-])cc1S(=O)(=O)N1CCN(C)CC1	0	105	.	i	0.96	30	160
COc1ccc(Nc2n[nH]c(C)c2[N+](=O)[O-])cc1	6	100	.	i	0.99	.	.
Cc1ccc(S(=O)(=O)Nc2ccc3c(c2)c2c(n3S(=O)(=O)c3ccc(C)cc3)CCCC2=O)cc1	0	92	-2.5	i	1	.	.
COc1ccc(CNC(=O)COC(=O)c2c(-c3c(F)cccc3Cl)noc2C)cc1OC	5	98	0.5	i	0.97	-33	100
O=C1CCc2cc(S(=O)(=O)NC(Cc3ccccc3)C(=O)NCCC3=CCCCC3)ccc2N1 (stereo unspecified)	-1	102	1.3	i	0.94	.	.
COc1cccc(OC)c1NC(=O)CN1CCC(NC(=O)c2cccc(F)c2)CC1	-6	.	-2.0	i	0.89	14	101
Cc1ccc(Cl)cc1NC(=O)N[C@@H](C)C(=O)O	-4	102	0.2	i	1	-14	93
Cc1cc(N2CCN(c3ccccc3)CC2)n2cc(-c3ccccc3)nc2n1	-9	103	-1.3	i	0.9	50	160
CC(=O)Nc1cc(S(=O)(=O)Nc2ccc(C)cc2)c(C)cc1C	-7	103	-1.1	i	0.96	-11	110
COc1ccc(OCC(=O)NNC(=O)c2cccc(O)c2)cc1	5	104	.	i	1	.	.
Cc1cc(=O)[nH]c(-n2[nH]c3c(c2=O)CCCC3)n1	-10	103	-1.6	i	0.91	-30	83
CCCCOc1ccc(C(=O)Nc2ccc(N3CCN(C(=O)C(C)C)CC3)cc2)cc1	-2	101	-1.5	i	1	41	117
CS(=O)(=O)N(Cc1ccc(C(=O)NCCSc2ccccn2)cc1)c1ccccc1	-5	97	0.4	i	1	-17	166
O=C(NCCCn1ccnc1)c1cccc(S(=O)(=O)N2CCCCCC2)c1	0	102	-0.9	i	1.1	-6	101
CC1CCCC(NC(=O)C2CCCN2S(=O)(=O)c2cccc3nsnc23)C1C (stereo unspecified)	-5	105	-0.3	i	0.91	.	.
NC(=O)[C@H]1CC2(CC(c3cccc(NC(=O)COc4ccc(Cl)cc4)c3)=NO2)CN1C(=O)c1ccccc1C(=O)c1ccccc1 (stereo partly specified)	.	89	.	i	1	.	.
Cc1ccc(N(Cc2ccc(C(=O)NN=C3CCN(C)CC3)cc2)S(C)(=O)=O)cc1C	-3	107	-0.3	i	1	19	153
Cc1ccc(NC(=O)C(=O)NCCN2CCN(S(=O)(=O)c3ccccc3)CC2)cc1C	-4	116	.	i	0.99	7	84
CCC(=O)Nc1ccc(-c2cc3ccccc3oc2=O)cc1	-7	97	.	i	0.9	.	.
CCCCC(=O)OCC(=O)c1ccc(OCC)cc1	-6	78	-1.9	i	1.2	-55	93
Cc1nn(C)cc1C1C2=C(CC(C)(C)CC2=O)N(c2ccccc2)C2=C1C(=O)CC(C)(C)C2	-9	101	0.3	i	0.91	49	71
Cc1ccc(C)n1-c1ccc(C(=O)Nc2ccccc2F)cc1	0	101	.	i	0.89	-73	89
Cc1cccc(NC(=O)Cn2cnc3c(cnn3-c3ccc(F)cc3)c2=O)c1C	-2	103	1.3	i	0.8	-86	87
Next structures:
SMILES	PKD1 kinase inh	RGS16-Gao	GALR2 agonist	HSV replic up	HSV replic up primary fold	Insulin prom inh	Insulin prom inh cell count
COCCn1c(N2CCN(c3ccc(OC)cc3)CC2)nc2c1c(=O)n(C)c(=O)n2C	-2	104	-1.0	i	0.83	.	.
CS(=O)(=O)Nc1ccc(C(=O)NCC2CCCO2)cc1 (stereo unspecified)	-12	103	-1.7	i	0.96	-62	114
CCc1c(SCCC(=O)O)nc2ccccc2c1C	-2	109	.	i	1	.	.
O=C(COc1ncnc2ccccc12)Nc1cccc([N+](=O)[O-])c1	-4	108	.	i	0.85	.	.
C=CCSC1=N/C(=C\c2ccc(C(=O)O)cc2)C(=O)S1	-6	101	.	i	0.95	.	.
O=C(CSc1nc(-c2ccncc2)nn1CC(=O)N1CCCCC1)NC1CCCC1	-9	101	-4.1	i	0.93	.	.
CN(C)c1ccc(/C=N\NC(=O)c2cccc3cc[nH]c23)cc1	.	85	.	i	0.76	.	.
CSc1ncc(-c2ccc(Cl)cc2)[nH]1	.	99	.	i	0.91	.	.
O=S(=O)(c1cc(Cl)ccc1Cl)N1CCCCC1	-23	102	-2.0	i	1.1	-3	62
O=C(O)C1C2C=CC(C2)C1C(=O)NC1CCS(=O)(=O)C1 (stereo unspecified)	-4	95	-1.7	i	1	31	91
Cc1cccc(/C=N/N(CCO)C2=NS(=O)(=O)c3ccccc32)c1	-4	104	.	i	1	-142	66
C[C@@H](C(=O)NCCc1c[nH]c2ccccc12)[C@@H]1C[C@@]1(C)[C@@H](NC(=O)OCc1ccccc1)c1ccccc1	3	114	-1.1	i	0.97	36	79
CC(C)OC(=O)Cn1nc(C(F)(F)F)c2c1CCCC2	-1	104	.	i	1	.	.
O=C(Nc1cccc(S(=O)(=O)N2CCCCC2)c1)Nc1ccc(Cl)cc1Cl	-1	100	-0.6	i	0.86	-33	126
